PrP 5UTR inh: inhibition of PrP 5' UTR reporter expression | 0.35% of 340,000 active | inhibition, % (no concentration beside the values) | cell-based PrP 5' UTR mRNA reporter, plate reader;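 active = every replicate at 50% or more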;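 note: 0 = median of the neutral control wells; tested in H4 reporter cells; numbers are from one replicate; inactives centre near -14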
Sa RN4220 lethal: S. aureus RN4220 growth inhibition. OD600, 16 h. inhibition, % (no concentration beside the values). 0.33% of 330,000 active. AID 1259311;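 active = z-score of -3 or lower and OD600 up to 0.18 on both plates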;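 note: plate controls were untreated cells for no effect and reference antibiotic for full effect; stock transfer was 100 nL into about 80 µL; one replicate is shown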
ugtP null kill: compounds lethal to S. aureus RN4220 ugtP deletion mutant; AID 1259309; growth inhibition, % (test concentration not listed); OD600 growth, 16 h; some inactives read as strong as hits; 0.54% of 330,000 active;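 active = z-score under -3 and OD600 up to 0.15 on both plates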;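 note: plate controls were untreated wells for no effect and antibiotic for full effect; wells of about 80 µL received 100 nL stock; the first replicate is given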
BJeLR lethal: BJeLR cell viability loss. inhibition, % (no concentration beside the values). BJeLR (HRASV12) viability, CellTiter-Glo ATP luminescence, 48 h; reference of the scale not given here. 0.17% of 300,000 active. AID 1554;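 active = replicate mean above 50%; inconclusive = above 50% but judged a plate artefact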;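 note: 50 nL library stock added to about 25 µL; numbers are from one replicate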
Autofluor counter: flagged as autofluorescent in microsphere protease counterscreen; compound autofluorescence counterscreen, microsphere flow cytometry; stronger effect = higher value; fluorescence intensity (test concentration not listed); 3.1% of 360,000 active; AID 624483;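 active = at least 3 SD above the mean of all compounds, about 16000 in these data; inconclusive = too few beads counted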;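 note: 100 nL of 1 mM stock went into each well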
Mtb hypoxia inh: Mtb hypoxia fluorescent reporter inhibition; M. tuberculosis hypoxia-regulated fluorescent reporter, fluorescence; fluorescence inhibition, % (concentration not given with the values); 0.1% of 300,000 active; AID 1159583;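 active = 35 to 45% if threefold the growth effect, above 45% if 1.5-fold the growth effect; inactive = the rest, general growth blockers included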;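 note: wells of about 50 µL received 100 nL stock; 0% = vehicle wells and 100% = reference inhibitor wells; whole bacteria with a GFP reporter of the hypoxia response; strong numbers were not always called active; many hits fall short of the cut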
Mtb hypoxia inh growth: second read-out of Mtb hypoxia inh, no call of its own (marks repeat the call); growth inhibition, %; measured here: M. tuberculosis growth (absorbance);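 0% = vehicle and 100% = reference antibiotic; read after six days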
Starred values were filed as active, the others as inactive; ? = inconclusive; . = not tested or not shown.

SMILES	PrP 5UTR inh	Sa RN4220 lethal	ugtP null kill	BJeLR lethal	Autofluor counter	Mtb hypoxia inh	Mtb hypoxia inh growth
COc1cc(C=NNC(=O)CNC(=O)c2ccccc2)ccc1OC(=O)c1cccs1	.	-1.0	-5	.	.	-76	-11
COc1cc2ccccc2cc1C(=O)NC1CCCC1	-72	2.9	-1	.	3307	12	6
O=C(NC1CCCC1)c1cc(-c2ccccc2O)on1	-35	1.4	-3	-3	6494	10	2
CCCOc1ccc(/C=c2\sc3nc(-c4ccco4)nn3c2=O)cc1OCC	-18	.	.	2	6206	.	.
CCc1nnc2n1N=C(c1ccc(OC)cc1)CS2	-17	1.3	1	1	17512*	3	-1
NS(=O)(=O)c1cccc(NC(=O)COC(=O)c2cc([N+](=O)[O-])ccc2N2CCCC2)c1	-19	-3.1	7	.	3947	6	11
Cc1ccc(NC(=O)/C=C/c2ccco2)cc1S(=O)(=O)N1CCCCCC1	-2	6.9	5	5	4421	5	0
Cc1nc2ccc(Br)cc2c(=O)n1-c1ccc([N+](=O)[O-])c(C(F)(F)F)c1	-15	2.5	11	10	3067	17	7
O=C(CSc1nnc2n1CCCCC2)Nc1ccc(N2CCOCC2)cc1	-14	-0.3	-5	24	3493	13	8
CCOC(=O)C1=C(C)NC(C)=C(C(=O)OCC)C1C(=O)OCC(=O)NC1CCCCC1	-18	-5.9	-11	.	2973	3	2
CCCOc1ccc(C2=CSC3=NCCN23)cc1	-9	4.0	7	-1	4078	0	10
O=C(COC(=O)c1cc(=O)[nH]c2ccccc12)NCc1ccccc1	-31	1.7	4	.	6008	-4	-2
N#C/C(=C\c1ccc(O)cc1)C(=O)NCc1ccccc1	-22	-2.8	5	-14	3129	7	1
Cc1ccn(-c2cccc(-n3ccc(C)n3)n2)n1	-105	7.3	2	-2	2160	9	-4
COc1ccc(C(=O)NC2CC2)cc1OC1CCN(Cc2ccc(Cl)cc2)CC1	-12	-4.1	-7	-4	4208	-9	-5
COc1ccc(NC(=O)CN2C(=O)c3ccccc3Sc3ccc(C(=O)N4CCOCC4)cc32)c(OC)c1	-31	2.3	-7	8	3945	-7	-2
O=C(CSc1nnc(-c2cccnc2)o1)Nc1ccc(Br)cc1	-19	-3.0	2	-12	4057	-9	-4
CCCC(=O)OCC(=O)Nc1cc(Cl)ccc1[N+](=O)[O-]	-18	17	9	-6	4744	-2	8
CC(Sc1ncnc2sccc12)C(=O)Nc1ccc(S(N)(=O)=O)cc1 (centres undefined)	-1	5.4	9	.	3200	10	4
NC(=O)C1CCN(c2ncc(C(F)(F)F)cc2Cl)CC1	-14	-1.4	2	0	4819	-2	9
CC(C)n1cc(CNC(=O)C2CCC(=O)N(Cc3ccccc3F)C2)cn1 (centres undefined)	-20	3.5	14	-3	6466	4	8
COc1ccc(CN(CC(=O)NCc2ccccc2)C(=O)CCC(=O)Nc2cc(C)ccn2)cc1	-19	3.6	3	7	6173	16	4
CN(C)C(=O)c1cc(Br)ccc1Cl	-23	2.1	6	0	5759	6	5
O=C(c1cccs1)N1CCc2c([nH]c3ccccc23)C1c1ccccn1 (centres undefined)	-14	3.5	12	5	1991	-9	-2
C=CCn1c(O)c(C=Nc2ccc(Cc3ccncc3)cc2)c(=O)[nH]c1=S	-21	1.5	-1	-3	8632	1	-3
(cont.)
SMILES	PrP 5UTR inh	Sa RN4220 lethal	ugtP null kill	BJeLR lethal	Autofluor counter	Mtb hypoxia inh	Mtb hypoxia inh growth
O=C1SCCc2c1n(Cc1ccccc1)c1ccccc21	-10	-5.7	-10	-1	2415	9	2
Cc1nnsc1C(=O)N/N=C/c1ccccc1Cl	-19	.	.	2	5646	.	.
Cc1cc(C)c(NC(=O)CSc2nc(=O)n3cc(C)ccc3n2)c(C)c1	3	2.5	0	7	5151	7	2
COc1ccc(S(=O)(=O)NC(C)C(=O)NCc2cccnc2)cc1C (centres undefined)	-16	3.9	1	-2	4203	-10	-7
C[C@]1(C(=O)O)C=C[C@@H](Cc2ccccc2)N1C(=O)c1ccccc1	-4	.	.	-4	4250	.	.
CC(=NC1CCCCC1)C1=C(O)c2ccccc2C1=O	-121	3.7	-23	-1	8392	11	7
Cc1onc(-c2ccccc2)c1C(=O)Nc1c(C)n(C)n(-c2ccccc2)c1=O	-12	-11	-5	3	2891	7	-2
CC(C)N(C(=O)c1nn(C)c2c1CSc1ccccc1-2)C1CCCCC1	-2	32	12	4	6223	19	6
O=C(Nc1ccccc1)c1ccc(-c2ccccc2C(F)(F)F)o1	-39	18	-27	.	3715	8	9
CCOC(=O)COc1cc(O)c2c(=O)cc(-c3ccccc3)oc2c1	-7	14	7	-1	3368	.	.
NC(=O)c1ccc[n+](CC(=O)c2ccc(Br)cc2)c1	-25	4.1	1	8	?	-8	-3
Cc1nc2ccccc2n1C(=O)N1CCOCC1	-24	-0.5	-4	3	4106	.	.
c1cc2c(cc1Oc1nc(N3CCOCC3)nc(N3CCOCC3)n1)OCO2	-28	1.4	1	1	4800	.	.
CN1CCN(C(=O)c2ccc3c(c2)N(C)C(=O)/C(=C/c2cccc(Cl)c2)S3)CC1	-17	1.2	-8	9	5368	-1	9
COc1cc(NC(=O)CN2CCN(C(=O)C3CCCO3)CC2)c(OC)cc1Cl (centres undefined)	-25	0.6	2	-25	4539	16	-43
Cc1ccc(CNC(=O)COC(=O)c2ccc(Cl)c(N)c2)cc1	-13	5.8	-2	5	7808	6	2
CC(=O)N(C)c1ccc(NCc2cc(=O)oc3cc(C)c(O)cc23)cc1	-19	1.6	2	-3	3954	5	1
COC(=O)c1sc(C(C)(C)C)cc1CS(=O)(=O)c1ccccn1	0	-0.4	1	4	3088	-2	-18
COc1cccc(C2CC(C(F)(F)F)n3nc(C(=O)Nc4c(C)n(C)n(-c5ccccc5)c4=O)cc3N2)c1 (centres undefined)	-5	6.0	5	4	3139	0	0
Cc1ccnc(SCc2cc(=O)c(OC(=O)c3ccccc3)co2)n1	-3	4.3	4	5	3947	-2	-9
Cc1ccc(C(=O)N2CCN(S(=O)(=O)c3ccccc3)CC2)cc1	-7	2.7	3	6	3129	2	9
CC(C)(C)N1CC(C(=O)Nc2ccc(C#N)cc2)CC1=O (centres undefined)	-4	0.3	3	1	3995	1	8
Cc1cccc(NC(=O)c2ccc(COc3ccc(Cl)cc3Cl)o2)n1	-10	18	-13	-7	3785	0	4
CCn1ncc(Br)c1C(=O)Nc1ccccc1OC	-3	1.2	-1	0	4599	18	-3
Cc1ccc(NC(=O)N2CCC(NC(=O)c3ccccc3C)CC2)cc1	-33	5.3	-7	1	8165	4	6

A second format for 2 compounds above:
O=C(Nc1ccccc1)c1ccc(-c2ccccc2C(F)(F)F)o1
- PrP 5UTR inh: -39
- Sa RN4220 lethal: 18
- ugtP null kill: -27
- BJeLR lethal: .
- Autofluor counter: 3715
- Mtb hypoxia inh: 8
- Mtb hypoxia inh growth: 9

CCOC(=O)COc1cc(O)c2c(=O)cc(-c3ccccc3)oc2c1
- PrP 5UTR inh: -7
- Sa RN4220 lethal: 14
- ugtP null kill: 7
- BJeLR lethal: -1
- Autofluor counter: 3368
- Mtb hypoxia inh: .
- Mtb hypoxia inh growth: .

Remaining list, next part.
SMILES	PrP 5UTR inh	Sa RN4220 lethal	ugtP null kill	BJeLR lethal	Autofluor counter	Mtb hypoxia inh	Mtb hypoxia inh growth
Cc1cccc(N2CCN(C(=O)c3cc(S(=O)(=O)N(C)C)ccc3N3CCCC3)CC2)c1C	-26	-0.3	5	0	4880	10	2
CC(O)Cn1c(N2CCCC2)nc2c1c(=O)[nH]c(=O)n2C (centres undefined)	-7	-2.7	8	3	4052	5	10
Cc1nnc(N2CCN(Cc3ccccc3)CC2)[nH]c1=O	-6	-4.3	-2	2	4647	.	.
CC(OC(=O)CCOc1ccccc1)C(=O)NC1CC1 (centres undefined)	-3	-0.3	3	4	?	-2	-10
CCCCCSc1cc(OC)c(CCN(C)C)cc1OC	-9	2.1	4	7	5305	.	.
OC(c1cc(-c2cccc(Cl)c2)nc2ccccc12)C1CCCCN1 (centres undefined)	-6	7.5	8	.	3922	19	17
CN1C(=O)CC2(CC(=O)N(Cc3ccccc3)C2)C1=O (centres undefined)	-7	3.7	2	-9	2812	9	3
CCN(CC(=O)Nc1ccc(NC(C)=O)cc1)C(=O)/C=C/c1c(C)nn(-c2ccc(F)cc2)c1Cl	-11	1.8	4	.	.	6	9
Cc1ccc(S(=O)(=O)NCC(=O)N(c2ccccc2)C(C(=O)NCc2ccccc2)c2ccco2)cc1 (centres undefined)	0	0.9	-17	5	2411	-7	-2
COc1ccc(Cl)cc1NC(=O)COC(=O)CCc1cc(OC)c(OC)c(OC)c1	-20	2.8	1	-5	3846	13	7
CSc1nc2sc(-c3ccccc3)cc2c(=O)n1N	-97	-11	-7	27	2886	0	1
O=C(Nc1nnc(-c2ccc(Cl)cc2)o1)c1cccc(N2C(=O)CCC2=O)c1	-24	23	-5	-6	1933	-8	7
CCN(C(=S)NCc1ccccc1)c1ccccc1	-16	3.9	6	0	2715	14	2
O=C(c1cccc(-c2ccc(O)cc2)c1)N1CCOCC1	5	0.9	6	1	4282	10	19
O=[N+]([O-])c1cc(C(F)(F)F)cc([N+](=O)[O-])c1N1CCCNCC1	-44	-5.8	7	0	3955	17	29
CCOc1ccc(CN(C)CC(O)COC(c2ccc(OC)cc2)c2ccc(OC)cc2)cc1 (centres undefined)	-12	1.1	-6	9	4336	6	0
Cc1cc(C)cc(N=C2NC(=O)/C(=C/c3cccs3)S2)c1	-5	-2.6	-13	2	2107	5	-5
CC(O)(CS(=O)(=O)c1ccccc1)C(=O)Nc1cccc(C(F)(F)F)c1 (centres undefined)	-21	1.5	0	-1	21019*	0	0
COc1ccc(C)cc1S(=O)(=O)N1CCC(C)CC1	-17	3.5	0	-2	21743*	6	-4
CCOC(=O)N1CCN(C(=O)c2c(-c3ccccc3)noc2C)CC1	0	0.1	7	-1	3939	.	.
CC1(C)CC(=O)C=C(Nc2ccc(Br)cc2F)C1	-14	2.1	0	-7	3697	-10	2
CC(C)(C#N)NC(=O)c1ccco1	-11	-2.1	4	-7	3907	.	.
CCOc1c(Br)cc(CNc2ccc(N3CCOCC3)cc2)cc1OC	-7	7.8	4	8	4315	4	3
Cc1cc(C(=O)Cn2nc(C(=O)O)c3ccccc3c2=O)c(C)n1-c1cccc(C(F)(F)F)c1	-13	3.6	2	-15	3348	9	3
O=C(Nn1cc(C(=O)Nc2ccc(F)cc2F)c2ccccc2c1=O)c1cnccn1	-16	.	.	1	4005	.	.
(next part)
SMILES	PrP 5UTR inh	Sa RN4220 lethal	ugtP null kill	BJeLR lethal	Autofluor counter	Mtb hypoxia inh	Mtb hypoxia inh growth
Cc1ccc(NC(=O)C(C)SCc2nc3sc4c(c3c(=O)[nH]2)CCCC4)nc1 (centres undefined)	-14	3.9	-2	4	?	1	6
O=C(Cc1ccccc1)N1CCC(c2nc(-c3ccc(F)cc3)no2)CC1	-18	1.2	0	-2	16726*	2	4
Cc1cccc(N=C2NC(=O)/C(=C/c3cccn3C)S2)c1C	-23	8.1	-26	-9	3646	13	4
O=C(NN=Cc1ccoc1)c1cccc(OC(F)(F)C(F)F)c1	.	1.5	-2	.	.	5	7
CCOC(=O)N1CCC(NS(=O)(=O)c2cc(Br)cnc2N)CC1	-27	5.3	0	-1	2846	12	4
Cc1ccc(NCCC(=O)c2ccccc2)cc1Cl	52	9.2	1	3	4470	8	13
CC(CC(=O)Nc1cccc(C(F)(F)F)c1)=NNC(=O)C(=O)NCCO	.	0.5	-3	.	.	-2	6
Cc1ccc(NC(=O)CN(C)S(=O)(=O)c2cccc3nsnc23)cc1	-12	1.8	-1	2	2491	.	.
O=C(NCCc1ccccn1)C1CCN(S(=O)(=O)c2ccc3ccccc3c2)CC1	-14	5.0	4	-6	3573	4	5
CSc1ncccc1C(=O)OCC(=O)c1ccccc1	-31	8.9	10	-12	4647	1	7
Cc1ccc(C(=O)OCc2cc(=O)n3c(C)csc3n2)s1	-44	-0.8	-6	.	2867	-5	-4
CCCn1nnnc1-c1cc(Cl)cc(Cl)c1	-25	4.2	0	-4	10923	5	9
O=C1Nc2ccccc2C(=O)C1(Cl)Cc1ccccc1 (centres undefined)	-6	5.2	18	-13	2170	.	.
CN(Cc1cccc(F)c1)C(=O)c1cccc(S(=O)(=O)N2CCN(Cc3ccccc3)CC2)c1	-12	1.8	1	0	5825	3	3
CCCCOc1ccc(S(=O)(=O)Nc2ccc(NC(C)=O)cc2)cc1	-6	-3.3	-9	0	21764*	-13	6
